# GIV Gai3 FP: GIV-Galpha-i interaction inhibition; P08753; Galpha-i3/FITC-GIV peptide fluorescence polarization, 90 min; active compounds read low; scaled: aluminum fluoride 0%, vehicle 100%; percent of control (FP), % (test concentration not listed); hit rate 0.42% among 210,000; AID 1224905;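 active = replicate mean at 85% of control or lower, very high polarization wells dropped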;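 note: lower values mean more displacement of the GIV peptide from Galpha-i3; wells of about 15 µL received 100 nL stock; the first replicate is given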
# Target sequence (P08753 whole entry, looked up): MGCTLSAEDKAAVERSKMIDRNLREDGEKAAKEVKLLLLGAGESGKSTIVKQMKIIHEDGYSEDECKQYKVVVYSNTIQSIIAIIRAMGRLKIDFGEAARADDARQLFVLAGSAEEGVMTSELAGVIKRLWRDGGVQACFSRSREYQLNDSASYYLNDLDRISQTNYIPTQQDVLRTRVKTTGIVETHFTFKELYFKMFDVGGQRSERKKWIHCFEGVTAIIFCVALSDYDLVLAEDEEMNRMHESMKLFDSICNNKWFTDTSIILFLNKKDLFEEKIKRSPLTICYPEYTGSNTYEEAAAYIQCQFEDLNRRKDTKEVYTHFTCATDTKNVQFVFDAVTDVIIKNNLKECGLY
# HCMV UL50-53 inh: disrupts HCMV UL50-UL53 complex binding. inhibition, % (test concentration not listed). hit rate 0.15% among 190,000. HTRF UL50-UL53 interaction, normalized percent inhibition. AID 1918969;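 active = both replicates at 50% or more, plus weaker picks with an unusually low signal ratio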;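 note: stock transfer was 100 nL into about 20 µL; 0% = negative control wells and 100% = wells with untagged competitor protein; inactives centre near -12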
# Sa growth 42C: S. aureus growth inhibition. AID 720641. S. aureus RN4220 growth, OD600, 20 h, 42 °C; active compounds read low. relative growth, % (concentration not given with the values). hit rate 0.53% among 170,000;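 active = growth at 42 °C up to 50% and 20 or more points under that at 30 °C, or under 10% at both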;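 note: 300 nL library stock went into each well; scaled to the means of positive and negative controls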
# Sa growth 42C second temp: second read-out of Sa growth 42C, no call of its own (marks repeat the call); relative growth, %; measured here: growth at 30 °C;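 optical density after 20 h as mean of two plates; 100% = untreated growth and lower means inhibition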
# * marks the source's active call; other numbers are inactive results; · = no result given; & = joins results of further samples. The order is random; about 0.8% have a hit in one of these screens.
SMILES,GIV Gai3 FP,HCMV UL50-53 inh,Sa growth 42C,Sa growth 42C second temp
COc1ccc(Cl)cc1N(C)C(=O)CCNC(=O)Cn1cnc2ccccc2c1=O,99,-23,·,·
O=C(Nc1sc2c(c1C(=O)NCc1ccccc1)CCCC2)c1cc(=O)c2cc(Cl)ccc2o1,100,-15,92,81
CCc1ccccc1Nc1cc(C(=O)NCCc2ccccc2)c2ccccc2n1,103,6,97,93
CC(=O)N(c1ccc2oc(=O)sc2c1)S(=O)(=O)c1cccs1,107,-12,82,64
COc1cc2c(cc1NC(=O)c1cc(C)oc1C)oc1ccccc12,·,-2,98,93
COc1ccc(-n2nc(C(=O)Nc3cccc(Cl)c3)c3c4ccccc4n(C)c3c2=O)cc1Cl,104,-17,100,87
CCCCn1c(SCC(=O)OCC)nc2sc3c(c2c1=O)CCC3,97,-3,·,·
CCc1c(C)nc2nc(-c3ccccc3)nn2c1Nc1cc(OC)ccc1OC,102,-24,·,·
O=C(O)c1ccc(-n2c(-c3ccccc3)cc3c2CCCC3)cc1,106,·,64,41
CCOc1ccc(CCNC(=O)Cn2nc(C)n3cccc3c2=O)cc1OCC,105,·,100,93
CC(=O)Oc1ccc2occ(C(=O)c3cccs3)c2c1,103,-20,100,80
CC1CCCCN1CC(=O)N1CCN(C(=O)CN2CCCCC2C)CC1 (stereo unspecified),98,-8,109,90
Oc1ccc(-n2cncn2)cc1,99,·,92,91
CCC(C)NC(=O)Cn1c(=O)n(-c2ccc(C)c(C)c2)c(=O)c2c3c(sc21)CCCCC3 (stereo unspecified),107,-4,103,99
COc1ccc(OC(=O)N2CCOCC2)cc1,101,·,96,86
COc1ccc(-c2noc(CC(=O)N(C)c3ccccc3)n2)cc1,105,·,90,85
Cc1ccc(NC(=O)c2c(NC(=O)c3ccccc3)sc3c2CCC3)cc1,105,-40,102,85
COc1cccc(-n2c(=O)c3sccc3n(Cc3ccc(F)cc3Cl)c2=O)c1,98,·,107,87
Cc1cccc(OCC(=O)Nc2ccc(S(=O)(=O)N(Cc3ccccc3)c3ccccc3)cc2)c1,101,-16,92,88
Cc1ccc(S(=O)(=O)N2CCN(C(=O)CSc3ccccn3)CC2)c(C)c1,·,-55,67,94
COc1cc(C)c(N)cc1C(C)C,105,-19,93,83
O=C(CSc1ncccc1C(=O)Oc1ccccc1Cl)NCCc1ccccc1,103,5,108,90
O=C(CCN1C(=O)c2cccnc2Sc2ccccc21)N1CCCCC1,105,-37,93,85
CCc1cccc(C)c1NC(=O)CSC1=Nc2ccccc2N=C(c2ccccn2)C1,102,-33,·,·
COc1ccc(-c2nonc2NC(=O)COc2ccc(Br)cc2)cc1C,103,8,·,·
CCN1CCOC(=O)C1CC(=O)Nc1ccc(Br)cc1 (stereo unspecified),102,-3,55,65
CC1=C(C(=O)Nc2ccc(C)cc2)C(c2ccccc2Cl)n2ncnc2N1 (stereo unspecified),100,-25,·,·
C=CCSc1nnc2n(-c3ccccc3)c(=O)c3c(C)c(C)sc3n12,98,·,108,82
CCCN1CCN(C(=O)CN2C(=O)CCc3cc(S(=O)(=O)N4CCC(C)CC4)ccc32)CC1,103,-25,·,·
CC(C)(C)OC(=O)N1C[C@@H]2C(NC(=O)c3nsc(Cl)c3Cl)[C@@H]2C1 (stereo partly specified),106,·,109,86
S=c1nc(-c2ccccc2)[nH]c2c1Cc1ccccc1O2,102,·,105,70
CCOc1ccc(-c2nc3c(c(SCC(=O)Nc4ccccc4C)n2)Cc2ccccc2O3)cc1,106,-9,95,98
CCC(=O)N1CCc2cc(Br)cc(S(=O)(=O)NCCc3ccc(C)cc3)c21,104,·,119,89
CSc1c(CC(=O)NCCc2ccccc2)n(C)c2ccccc12,·,-9,114,104
COC(=O)c1nc(C)n(-c2ccc(Cl)cc2)n1,102,-17,·,·
Cc1ccc(S(=O)(=O)Nc2ccc3nc(N4CCN(C)CC4)cc(C(=O)O)c3c2)c(C)c1,100,-46,·,·
CCOC(=O)c1ccccc1NC(=O)Cn1ncc2c([nH]c3ccccc32)c1=O,105,·,111,90
COc1ccc(OC)c(CCNC(=O)Cn2nc(Cc3ccncc3)c3ccccc3c2=O)c1,101,4,104,83
COc1ccc(OC)c(NC(=O)CSc2n[nH]c(-c3ccccc3Cl)n2)c1,106,·,85,74
CC(=O)N1CCCC1c1nc2ccccc2n1Cc1ccccc1F (stereo unspecified),101,-14,107,85

# Retrieved one by one from above, 2 records:
SMILES,GIV Gai3 FP,HCMV UL50-53 inh,Sa growth 42C,Sa growth 42C second temp
Cc1ccc(S(=O)(=O)Nc2ccc3nc(N4CCN(C)CC4)cc(C(=O)O)c3c2)c(C)c1,100,-46,·,·
CCN1CCOC(=O)C1CC(=O)Nc1ccc(Br)cc1 (stereo unspecified),102,-3,55,65

# Reformatted: entries from further up.
# Below each compound: GIV Gai3 FP	HCMV UL50-53 inh	Sa growth 42C	Sa growth 42C second temp
- CCC(=O)N1CCc2cc(Br)cc(S(=O)(=O)NCCc3ccc(C)cc3)c21
    104	·	119	89
- CSc1c(CC(=O)NCCc2ccccc2)n(C)c2ccccc12
    ·	-9	114	104
- COC(=O)c1nc(C)n(-c2ccc(Cl)cc2)n1
    102	-17	·	·
- Cc1ccc(S(=O)(=O)Nc2ccc3nc(N4CCN(C)CC4)cc(C(=O)O)c3c2)c(C)c1
    100	-46	·	·
- CCOC(=O)c1ccccc1NC(=O)Cn1ncc2c([nH]c3ccccc32)c1=O
    105	·	111	90

# Continuation.
SMILES,GIV Gai3 FP,HCMV UL50-53 inh,Sa growth 42C,Sa growth 42C second temp
O=S(=O)(NCCn1ccc2ccccc21)c1ccc(Cl)cc1,104,-10,98,45
CCOc1ccc(NS(=O)(=O)c2ccc3[nH]cc(C(=O)N(C)Cc4ccccc4)c(=O)c3c2)cc1,107,·,101,94
Cn1cc(Cl)c(C(=O)NC2CCCC2)n1,105,11,89,100
CN1CCN(CCCN2c3ccccc3Sc3ccc(Cl)cc32)CC1,105,-42&-47&1&4,96&96,72&84
Cc1ccc(Oc2ncccc2NC(=O)C(=S)NCc2ccccc2)c2c1CCC2,102,-20,84,87
CCCC(=O)N(c1ccc2oc(C)c(C(=O)OCC)c2c1)S(=O)(=O)c1ccc(Br)cc1,98,-1,·,·
CCOc1ccccc1-n1nnnc1SC(C)C(=O)OC (stereo unspecified),·,6,97,99
Cn1c(=O)c(-c2noc(C(=O)N3CCOCC3)n2)nn(-c2ccc(F)cc2)c1=O,98,-95,·,·
COc1ccc(C2C=C(c3ccc(Cl)c(Cl)c3)Nc3ncnn32)cc1 (stereo unspecified),100,-13,92,89
CCc1ccc(-c2nc3ccccn3c2CNCc2cccc(C)c2)cc1,101,-19,·,·
CCOC(=O)c1c(C)csc1NC(=O)CSc1ccc(Cl)cc1,99,-22,81,85
C=CCc1c(O)ccc2c(C)cc(=O)oc12,97,-23,101,62
CCC(C)(C)NC(=S)Nc1cccc(OC)c1,101,1,101,85
CCOC(=O)c1cnc2c(C(F)(F)F)cccc2c1Cl,107,10,103,81
OC(CN1CCN(Cc2ccccc2)CC1)C(F)(F)F (stereo unspecified),98,-11,·,·
CN(Cc1ccccc1)C(=O)C1CCN(S(=O)(=O)c2ccc3c(c2)oc(=O)n3C)CC1,109,-6,110,76
O=C(CCCn1c(=O)c2cccn2c2ccc(Br)cc21)NCCc1cnc[nH]1,102,-17,·,·
CN1CCN(C(=O)CN2CCN(Cc3ccccc3)C(=O)C2=O)CC1,105,7,·,·
O=C(COc1ccc(Cl)cc1)Nc1ccc(-c2nc3ccccc3s2)c(O)c1,104,-44,105,92
O=C(Cc1cccs1)NCC1CCCCC1,·,-10,86,95
O=C(CCc1ccccc1)Nc1ccon1,102,-10,110,105
CCCCCc1c(C)nn(-c2nc(CC(=O)Nc3nc(C)cs3)cs2)c1C,116,-28,·,·
N/C(=N\c1nc2ccccc2o1)NC(=O)c1ccccc1,102,-16,100,94
O=C(C1CCCN(c2nc3cccnc3s2)C1)N1CCN(c2ccccn2)CC1 (stereo unspecified),106,-22,·,·
O=C(Nc1ccccc1C(F)(F)F)N1Cc2ccccc2Oc2ncccc21,98,·,90,80
Cc1ccc(N2C(=O)CC3(CCCC3)C2=O)cc1,·,-22,82,94
CC(=O)OC(Cn1ccnc1)c1ccccc1 (stereo unspecified),104,7,98,90
CNC(=O)CCCc1nc(-c2ccccc2Cl)no1,100,0,100,92
CC(OC(=O)c1oc2ccccc2c1COc1ccccc1)C(N)=O (stereo unspecified),·,-11,108,97
Brc1cc2c(cc1CSc1nc3ccccc3o1)OCCO2,·,-2,109,104
CCOC(=O)c1ccc(-n2nc(C)c(C(=O)OCC)c2C)cc1,104,-12,89,62
CN1CCN(CCNC(=O)c2ccc(Cn3c(SCc4ccccc4)nc4cccnc43)cc2)CC1,113,-17,96,93
Cc1ccc(NC(=O)CN2C(=O)C(c3ccc(C(C)(C)C)cc3)=NC2(C)C)cc1,97,-16,108,91
CCC(C)NC(=O)c1ccc2c(=O)n(CCC3=CCCCC3)c(=O)[nH]c2c1 (stereo unspecified),107,-1,92,78
NS(=O)(=O)c1ccc2nc(NC(=O)c3cccs3)sc2c1,·,1&-33,99,90
COc1ccccc1NC(=O)Cn1c(=O)n(Cc2ccco2)c(=O)c2oc3ccccc3c21,101,·,102,84
Cn1c(=O)c2c(ncn2CCNC2=NCCC2)n(C)c1=O,101,·,99,90
COc1cc(C(=O)NCc2cccnc2)ccc1OCc1ccc(Cl)cc1,·,-18,96,77
NC(=O)NCc1ccccn1,99,-30,91,88
O=C(Nc1cccc(C(=O)O)c1)/C(=C\c1ccco1)NC(=O)c1ccc(Br)cc1,104,-28,101,95
Cc1ccc(CNC(=O)Nc2cccc(Cl)c2)n1C,118,-21,90,68
C=CC#CC1(O)CC(C)[N+](C)(C)CC1C (stereo unspecified),101,1,88,89
COc1cc2nc(SCc3cccc(Cl)c3)n3nc(CCn4nc(C)cc4C)nc3c2cc1OC,98,-15,105,87
CCOC(=O)CSc1nc2nccnc2c(=O)n1Cc1ccccc1,103,·,114,97
O=C(O)CCc1nn2c(=O)c3ccccc3nc2s1,100,·,88,83
CCOc1ccc(-n2c(SCC(=O)NCc3ccco3)nc3c([nH]c4ccccc43)c2=O)cc1,98,·,90,99
Cc1ccc2nc(-c3cc4ccccc4o3)cc(C(=O)O)c2c1,109,-76,99,88
N#Cc1ccc(N2CCN(C(=O)c3ccco3)CC2)cc1,94,1,91,64
Cc1ccc2oc(=O)c3cc(C(=O)NC4CCCC4)sc3c2c1,106,·,105,93
S=c1[nH]n(-c2ccc(Cl)cc2)c(=S)s1,101,-28&-17,88&95,86&89
COc1ccccc1N=P12CN3CN(CN(C3)C1)C2,·,-41,100,89
Cc1ccc(N2CCN(c3ccc(C)cc3)C2c2ccc(C)o2)cc1,98,-4,120,75
CCc1ccc(OCC(=O)Nc2ccc(S(=O)(=O)Nc3onc(C)c3C)cc2)cc1,102,-5,59,57
O=C(NNc1ccccc1)c1cnn2c(C(F)(F)F)cc(C(F)(F)F)nc12,101,-121,92,83
O=C(O)CCCn1cc(NC(=O)COc2ccccc2F)cn1,104,·,114,91
O=C(CCN1C(=O)c2ccccc2C1=O)N1CCN(C/C=C/c2ccccc2)CC1,102,-12,·,·
CCc1ccc(NC(=O)Cn2cnc3sc(C)c(S(=O)(=O)N4CCN(c5ccccc5OC)CC4)c3c2=O)cc1,105,-2,92,99
COc1cccc(NC(=O)CC2C(=O)OCCN2Cc2ccccc2)c1 (stereo unspecified),106,35,97,89
Cc1ccc(-c2cc(N3CCC(C(=O)NCc4ccc5c(c4)OCO5)CC3)ncn2)cc1,106,0,·,·
Cc1ccc(OCC(=O)Nc2ccc(Cl)c(-c3nc4ccccc4[nH]3)c2)cc1C,99,-14,81,80
# Continuation:
SMILES,GIV Gai3 FP,HCMV UL50-53 inh,Sa growth 42C,Sa growth 42C second temp
CCN1CCN(c2nnc(-n3cccc3C(=O)NCc3ccccc3OC)s2)CC1,105,·,110,90
Cc1cc(C)c2c(N)c(S(=O)Cc3ccc(Cl)cc3)sc2n1 (stereo unspecified),95,·,96,79
COc1ccc(S(=O)(=O)Nc2ncccc2OCc2cc(F)cc(F)c2)cc1,105,-5,118,92
CN1CCc2c(sc3c2CN(C(=O)NCCc2ccccc2)C(c2ccc(F)cc2)c2cccn2-3)C1 (stereo unspecified),109,-16,·,·
C=CCNc1cc(CCC)nc2nc(-c3cccnc3)nn12,105,-22,·,·
CN(CC(=O)N1CCN(Cc2ccc3c(c2)OCO3)CC1)S(=O)(=O)c1cc(Cl)ccc1Cl,105,-7,110,97
O=C(Cn1nnc(-c2ccc(Cl)cc2)n1)NCCCN1CCOCC1,100,-12,91,79
Cc1[nH]c2ccccc2c1N=CN(C)C,98,·,91,80
CC1CCN(S(=O)(=O)c2ccc3c(ccn3CCC(=O)NCc3ccc(N(C)C)cc3)c2)CC1,105,·,110,91
Cc1ccc(C)n1-c1ccc(C(=O)OC2CCCCC2=O)cc1 (stereo unspecified),·,-1,78,85

# Part of the list above in order of SMILES length, largest number first.
SMILES,GIV Gai3 FP,HCMV UL50-53 inh,Sa growth 42C,Sa growth 42C second temp
CN(CC(=O)N1CCN(Cc2ccc3c(c2)OCO3)CC1)S(=O)(=O)c1cc(Cl)ccc1Cl,105,-7,110,97
O=C(Cn1nnc(-c2ccc(Cl)cc2)n1)NCCCN1CCOCC1,100,-12,91,79
Cc1ccc(C)n1-c1ccc(C(=O)OC2CCCCC2=O)cc1 (stereo unspecified),·,-1,78,85

# High-throughput results as filed in PubChem.
